Assay outcomes from PubChem.
MT1-MMP act inh: blocks activation of human MT1-MMP. P50281. HT1080 RFP-PRO-GFP cells, GFP/RFP ratio fluorescence, overnight; percent of plate control window, DMSO zero. GFP/RFP ratio change, % at 20 µM. 360,000 compounds, 0.061% hits;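 active = GFP/RFP ratio change of at least 30% with cell ATP level not reduced by more than half and red fluorescence within 50% of control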; also: strong numbers were not always called active
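system = RFP-PRO-GFP reporter HT1080 cells | dosing = 20 µM single dose, 1% DMSO | timing = overnight cell settling, then overnight compound exposure, 37 °C, 5% CO2 | read-out basis = GFP/RFP fluorescence ratio | controls = DMSO and RFP-L50D-GFP cell wells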
CSC inhib: blocks cancer stem cells; cancer stem cell-like cells viability, luminescence; inhibition, % at 7.5 µM; 300,000 compounds, 1.1% hits; AID 2717;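 active = mean at 75% or more and at least half the replicates too; inconclusive = mean and replicates disagree; tested in HMLE shEcad cells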;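 also: 0% = median of negative and 100% = median of positive control wells; the first replicate is given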
eIF4H inh: inhibitors of RNA binding by human eIF4H; 290,000 compounds, 0.94% hits; inhibition, % at 35 µM; Q15056; eIF4H fluorescence polarization binding assay;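 active = 50% or more with normal probe brightness, or confirmed in later tests; inconclusive = above 50% with abnormal brightness, or retests that disagree; inactive = below 50% or failed in later tests; about a fifth of its hits are not listed in these tables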;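 also: calls also rest on retests at 20 µM and on dose response follow-up; 0% = protein and probe with vehicle and 100% = probe without protein; strong numbers were not always called active; many hits fall short of the cut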
Rce1 inhib: yeast Ras-converting enzyme inhibition; Q03530; yeast membranes, quenched prenylated peptide cleavage fluorescence; calls only; 290,000 compounds, 0.27% hits; AID 2563;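 active = fall in fluorescence gain of 50% or more versus controls, with final raw signal at or below 3038400; inconclusive = same 50% fall but final raw signal above 3038400; inactive = fall in fluorescence gain under 50%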;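 also: plate controls were neutral control wells for no effect and wells lacking membranes for full effect; tested at 10 µM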
UUG fidelity: modulators of start codon recognition fidelity in yeast; S. cerevisiae UUG-firefly luciferase reporter, luminescence/redox ratio; activity score, % at 18.7 µM; 350,000 compounds, 0.13% hits;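 active = replicate mean at a twofold rise or more, about +100% in these data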;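 also: firefly luciferase made from a UUG start codon reports start codon fidelity; reporter light over untreated wells divided by growth signal over untreated wells; some hits fall short of that in this replicate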
PABP polyA inh: blocks human PABP binding to poly(A) RNA; fluorescence polarization; inhibition, % at 35 µM; P11940; AID 2014; 290,000 compounds, 1% hits;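 active = 50% or more with normal probe brightness, or confirmed in later tests; inconclusive = above 50% with abnormal brightness, or retests that disagree; inactive = below 50% or failed in later tests; about a fifth of its hits are not listed in these tables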;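 also: calls also rest on retests at 20 µM and on dose response follow-up; controls were probe without protein and protein plus probe with vehicle; some compounds called inactive have numbers as strong as hits; many hits fall short of the cut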
Target sequence (P11940 whole entry, looked up): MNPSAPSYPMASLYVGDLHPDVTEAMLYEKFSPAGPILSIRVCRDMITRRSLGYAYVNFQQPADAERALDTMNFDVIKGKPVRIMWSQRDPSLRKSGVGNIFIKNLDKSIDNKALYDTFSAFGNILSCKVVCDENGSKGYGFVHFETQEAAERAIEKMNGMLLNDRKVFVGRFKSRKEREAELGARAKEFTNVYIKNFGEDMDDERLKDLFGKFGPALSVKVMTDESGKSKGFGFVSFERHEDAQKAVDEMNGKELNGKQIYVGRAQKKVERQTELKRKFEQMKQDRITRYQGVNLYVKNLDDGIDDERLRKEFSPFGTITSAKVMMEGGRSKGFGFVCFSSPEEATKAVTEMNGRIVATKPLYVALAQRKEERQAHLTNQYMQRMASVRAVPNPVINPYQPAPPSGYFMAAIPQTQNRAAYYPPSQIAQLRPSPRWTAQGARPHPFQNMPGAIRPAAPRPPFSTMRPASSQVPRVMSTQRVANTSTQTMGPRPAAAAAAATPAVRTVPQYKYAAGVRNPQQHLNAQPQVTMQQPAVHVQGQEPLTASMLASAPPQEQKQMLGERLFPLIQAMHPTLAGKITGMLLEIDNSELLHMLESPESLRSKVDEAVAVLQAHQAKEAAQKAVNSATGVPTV
HIV Env fusion: blocks HIV Env-driven cell-cell fusion. HeLa-JRFL Env/CEM21 cell fusion, luciferase. inhibition, % at 12.3 µM. 360,000 compounds, 1.1% hits. AID 651610;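 active = mean replicate inhibition score of at least 50 and every replicate individually at or above 50; inconclusive = only one of the two criteria met; inactive = mean below 50 and not all replicates reaching 50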;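 also: 0% = plate neutral controls and 100% = maraviroc near 300 nM; one replicate is shown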
eIF4H inh retest: recorded beside eIF4H inh, whose call it bears; inhibition, %; compound at 20 µM; confirmation average;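 mean of two retest wells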
PABP polyA inh retest: also measured in PABP polyA inh; calls as there; inhibition, %; compound at 20 µM; confirmation repeats;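 mean of two retest wells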
MT1-MMP act inh RFP: recorded beside MT1-MMP act inh, whose call it bears; RFP signal change, %; measured here: RFP expression control read;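 0 = vehicle wells; hits needed this value within 50% of zero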
* marks the source's active call; other numbers are inactive results; i = inactive; ? = inconclusive; . = not tested or not shown; + = active, no number.

SMILES	MT1-MMP act inh	MT1-MMP act inh RFP	CSC inhib	eIF4H inh	Rce1 inhib	UUG fidelity	PABP polyA inh	HIV Env fusion	others
O=C(NN=Cc1ccc(F)cc1)c1ccccc1NS(=O)(=O)c1cccs1	0	-4	-11	.	.	-12	.	.
CCOc1ccc(C(=O)Nc2cccc(-c3nc4cccnc4o3)c2)cc1Cl	.	.	16	3	i	-1	-5	.
CCc1ccc(/C=N/NC(=O)c2cc(-c3cccc([N+](=O)[O-])c3)n[nH]2)cc1	-7	-15	69	0	i	-16	-3	-91
COc1ccc2[nH]c3nc(SCC(=O)Nc4cccc(NC(C)=O)c4)nnc3c2c1	8	-9	-1	-5	i	-20	15	22
COCCCN(CC(=O)Nc1ccc(N2CCOCC2)cc1)S(=O)(=O)c1ccc(C)cc1	0	-2	-2	-5	i	7	-13	-17
COc1ccc(-c2cc3nc(C)cc(-c4ccc(OC)cc4)n3n2)cc1	-1	-1	19	4	i	-27	7	3
C[C@H]1[C@H](c2ccccc2)C[C@@H](C(=O)O)C1(C)C	3	3	-3	.	i	-4	.	-13
O=C(CSc1nc2ccccc2o1)N1CCCC1	2	0	5	-7	i	.	-9	.
COc1ccc(-c2nc(N)nc(C(F)(F)F)c2-c2cscn2)c(O)c1	6	2	-2	-1	i	-9	2	3
COC(=O)CCCC1=CC2=CC(=O)C(C)(OC(=O)c3cccs3)C(=O)C2=CN1C1CC1 (stereo not given)	4	6	-4	87*	i	0	55*	13
CC[C@]12c3[nH]c4ccc(OC)cc4c3CCN1C(=O)C(CC(=O)NCCC1=CCCCC1)C[C@@H]2C(=O)N1CCN(C(=O)C2CC2)CC1 (stereo not given in full)	2	4	.	.	.	4	.	-24
O=C(Nc1ccc(S(=O)(=O)N2CCOCC2)cc1)c1cccnc1	-4	0	-8	-14	i	.	9	-6
NC(=O)COC(=O)c1ccc(Cl)c(S(=O)(=O)N2CCN(c3ccc(F)cc3)CC2)c1	-2	-6	-3	5	.	.	-11	-5
O=C(N/N=C\c1ccc(-c2cccc(Cl)c2)o1)C(=O)NC1CCCC1	10	2	-2	-4	i	-7	-2	1
Cc1[nH]nc2c1C(c1ccc(-c3ccccc3C#N)o1)C(C#N)=C(N)O2 (stereo not given)	4	1	14	8	i	-22	25	.
O=c1c2ccccc2nnn1CSc1nc2ccccc2c(=O)n1Cc1ccco1	-3	-18	-7	9	i	-12	8	.
S=C(Nc1ccccc1)Nc1ccccn1	2	3	.	.	.	-25	.	-37
COc1cccc(/C=N/NC(=O)C(=O)Nc2ccccc2OC(F)(F)C(F)F)c1	-1	3	2	-6	i	.	-7	-34
COc1ccc2cc3cc(C(=O)NCCC(C)C)oc3nc2c1	3	0	16	-4	?	-25	-13	1
CCOc1ccc2nc(N(Cc3ccccc3)C(=O)CCNC(C)=O)sc2c1	5	-6	.	1	i	-5	4	-13
CCOCCn1c(CN2CCN(c3cccc(Cl)c3)CC2)nc2c1c(=O)n(C)c(=O)n2C	0	-9	6	-7	i	0	-4	36
COc1ccc(Cl)cc1C(=O)NNC(=O)COC(=O)c1cccs1	1	4	-6	.	.	-8	.	.
CCOc1ccc(NC(=O)CN(C)C(=O)c2cn(-c3ccccc3)nc2-c2cccs2)cc1OCC	0	-7	-1	-15	i	5	6	-1
CCOC(=O)N1CCC(NC(=O)c2ccc3c(c2)sc2nc(-c4cccc(OC)c4)cn23)CC1	.	.	.	-2	i	.	1	.
CCCC1C2C(=O)N(c3ccccc3OC)C(=O)C2ON1c1ccccc1 (stereo not given)	.	.	-3	-6	i	-4	-4	-44

Ordered by molecular weight (lowest first): part of the list above
SMILES	MT1-MMP act inh	MT1-MMP act inh RFP	CSC inhib	eIF4H inh	Rce1 inhib	UUG fidelity	PABP polyA inh	HIV Env fusion	others
COc1ccc(-c2cc3nc(C)cc(-c4ccc(OC)cc4)n3n2)cc1	-1	-1	19	4	i	-27	7	3
COc1ccc2[nH]c3nc(SCC(=O)Nc4cccc(NC(C)=O)c4)nnc3c2c1	8	-9	-1	-5	i	-20	15	22
NC(=O)COC(=O)c1ccc(Cl)c(S(=O)(=O)N2CCN(c3ccc(F)cc3)CC2)c1	-2	-6	-3	5	.	.	-11	-5

Continuation.
SMILES	MT1-MMP act inh	MT1-MMP act inh RFP	CSC inhib	eIF4H inh	Rce1 inhib	UUG fidelity	PABP polyA inh	HIV Env fusion	others
O=C(NCC1CCCO1)c1nc(Cn2ccc([N+](=O)[O-])n2)no1 (stereo not given)	-1	0	13	-20	i	.	-5	1
COC(=O)C(C)Sc1nc2c(c(=O)n(C)c(=O)n2C)n1Cc1cccc(C)c1 (stereo not given)	1	3	.	1	i	-12	8	.
CCOc1ccc(S(=O)(=O)N(CC(=O)NC2CCCC2)c2ccc(F)cc2)cc1	-3	-3	-1	-2	i	-2	4	-17
O=C(CN1CCN(c2nc(-c3ccc(F)cc3)cs2)CC1)NCc1ccc2c(c1)OCO2	-3	-8	4	-8	i	.	1	33
Cc1cc(-c2ccc(S(=O)(=O)NCc3ccc(F)cc3)cc2)on1	4	-6	-1	-9	i	-6	-9	10
CC1CCN(S(=O)(=O)c2ccc(NC(=O)CN3CCCCCC3)cc2)CC1	-3	-6	43	-14	i	-24	6	-21
CC(=O)NCCC1CCN(C(=O)c2cc(COc3ccc(C)nc3)on2)CC1	5	-7	-1	7	i	-7	5	6
O=c1c(-c2ccccc2)c(-c2ccccc2)oc2cc(O)cc(O)c12	-5	-3	14	12	i	-23	7	-25
NS(=O)(=O)c1ccc(CCNC(=O)CCc2nc3sc4c(c3c(=O)[nH]2)CCCC4)cc1	0	1	1	.	i	-18	.	-9
CC1CC(c2ccccc2)n2nc(N3C(=O)c4ccccc4C3=O)nc2N1 (stereo not given)	0	7	-1	-10	i	-29	-6	.
Cc1ccccc1-n1cc(C(=O)c2cc(Cl)ccc2O)cc(C#N)c1=O	-29	-6	-19	-14	i	-3	5	8
Cn1c(CCC(=O)O)nc2cc(S(=O)(=O)N3CCCCC3)ccc21	0	2	-7	.	.	-22	.	.
CN1C(=O)c2oc3ccccc3c(=O)c2C1c1cccnc1 (stereo not given)	-4	1	-7	.	i	-8	.	-4
CCN(CC)S(=O)(=O)c1ccc(/C=C/C(=O)Nc2ccc(F)c(F)c2F)cc1	15	-19	-6	2	i	-10	-6	?
O=C(CCNS(=O)(=O)c1ccc(Br)cc1)NCc1ccco1	-2	0	-8	.	i	.	.	11
COc1ccc(C(C(=O)NCc2ccccc2)N(Cc2ccco2)C(=O)c2snc(C(N)=O)c2N)cc1OC (stereo not given)	3	1	-7	-2	i	2	-1	-6
COc1ccc(-c2cc3ccc(OCc4nn[nH]n4)cc3oc2=O)cc1OC	9	10	-9	5	+	1	28	-11
CCCCN(CC(=O)Nc1cccc(S(=O)(=O)N2CCCC2)c1)Cc1nc2ccccc2c(=O)[nH]1	0	-6	.	.	.	-4	.	-7
O=C1c2ccccc2C(=O)N1CC1=NCCc2ccccc21	-5	1	-3	6	i	-14	-2	13
O=C(CCN1C(=O)c2ccccc2S1(=O)=O)Nc1ccccc1F	5	6	.	-9	i	-3	-7	1
CCN(CC)CCCN(C(=O)c1ccco1)c1nc(-c2ccc(C)cc2)cs1	-1	-2	2	-7	i	3	-11	-40
Cc1ccc(N(CC(=O)NCc2ccco2)C(=O)CCC(=O)Nc2ccccn2)cc1C	1	0	-1	-5	i	-14	-1	.
Cc1ccccc1C(=O)Nn1cnc2ccccc2c1=O	0	4	.	-11	i	.	6	-2
Cc1occc1C(=O)N1CCCC(CCC(=O)NCc2ccc(F)c(F)c2)C1 (stereo not given)	-6	1	-4	-3	i	8	-3	-9
Cc1ccc2c(c1)sc(=NC(=O)c1cccs1)n2C	-5	2	19	2	i	.	-24	-110

The results go on.
SMILES	MT1-MMP act inh	MT1-MMP act inh RFP	CSC inhib	eIF4H inh	Rce1 inhib	UUG fidelity	PABP polyA inh	HIV Env fusion	others
CCc1ccc(N2C(=O)CC(c3ccc(F)cc3)C3=C2COC3=O)cc1 (stereo not given)	3	4	-2	-4	i	.	-5	.
COc1cc(-c2cc(C(=O)Nc3cc(S(=O)(=O)N4CCOCC4)ccc3C)c3ccccc3n2)cc(OC)c1OC	8	0	.	.	.	-12	.	-3
CN(CCc1ccccn1)C(=O)Nc1cc(Cl)cc(Cl)c1	4	4	-8	19	i	-15	33	8
Cc1ccc(C(C)C)c(OCC(=O)NNC(=O)CC2OC(=O)c3ccccc32)c1 (stereo not given)	2	6	-1	.	i	-7	.	-1
CC(C)(O)[C@H](O)Cc1cc2ccc(=O)oc2cc1O[C@@H]1O[C@H](CO)[C@@H](O)[C@H](O)[C@H]1O	3	2	-4	.	.	-7	.	-25
CCOC(=O)N1CCC(NC(=O)C2CCN(S(=O)(=O)c3cccs3)CC2)CC1	4	-1	-10	-4	i	-3	-22	15
CN(c1cccc(NC(=O)CCSc2ccccc2)c1)S(C)(=O)=O	3	1	-5	-4	i	0	-7	.
O=C1CCc2cc(S(=O)(=O)N3CCN(c4cccc(C(F)(F)F)c4)CC3)ccc2N1	2	-1	-7	-3	i	0	-7	.
O=C1CC(c2ccccc2)=NN1c1ccc([N+](=O)[O-])cc1	9	-14	101*	5	i	.	10	2
COc1ccccc1NC(=O)C1CCCN1C(=O)Nc1ccc(F)cc1 (stereo not given)	3	4	-4	-2	i	-14	1	-2
COc1ccc(OC)c(C(O)CNC(=O)CN)c1 (stereo not given)	4	7	-6	.	i	-3	.	-42
O=C(CSc1nnc(CNC(=O)c2ccc(F)cc2)o1)NCc1ccccc1	-1	2	-6	-2	i	-13	-11	1
Cn1c(-c2ccccc2)cc(=NNS(C)(=O)=O)c2cc(S(=O)(=O)O)ccc21	-3	3	.	.	.	-9	.	10
COc1ccccc1OCC(=O)Sc1ccc(C)cc1	-6	-3	3	-13	i	-10	69	-36	eIF4H inh retest=4;PABP polyA inh retest=5
Cn1cc(/C=C2/SC(=O)N(CC(=O)Nc3ccc4c(c3)OCO4)C2=O)c2ccccc21	5	2	20	-2	i	.	-3	-76
Cc1ccc(N(CC(=O)NC2CC2)S(=O)(=O)c2ccccc2)c(C)c1	-2	3	14	4	.	-9	0	-1
Cc1ccc(S(=O)(=O)NCCN=Cc2ccc(N(C)C)cc2)cc1	-3	2	-1	5	i	0	8	-1
COc1ccc(S(=O)(=O)Nc2cc3c4c(c2)CC(=O)N4CCC3)cc1C	-2	-4	0	.	i	-7	.	5
CCCc1cc(-c2nc(-c3ccc(Br)cc3)cs2)ccn1	0	0	7	5	i	.	3	-15
CC(C)(C)NC(=O)NC(=O)Cn1ccsc1=N	3	5	-1	-10	i	-15	-12	8
Cc1cc(C)cc(NC(=S)NCc2ccc3[nH]c4c(c3c2)CCCC4)c1	6	-4	62	-2	i	-17	-2	-53
Cc1cc(OCC(=O)NCCN2CCOCC2)c2c(C)c(C)c(=O)oc2c1	-2	3	-9	-6	i	5	12	0
O=C(c1cccc(S(=O)(=O)N2CCN(c3ccccc3)CC2)c1)N1CCCCCCC1	2	-10	.	.	i	.	.	35
CCCCOc1ccc(N(CC(=O)NC(C)(C)C)C(=O)CCC(=O)Nc2nccs2)cc1	1	0	-13	1	i	-15	1	-4
Cc1ccc(S(=O)(=O)NCC(=O)OCC(=O)c2ccc(Cl)s2)cc1	-1	3	-19	2	i	-16	1	11
CCN1CCN(S(=O)(=O)c2cccs2)CC1	2	-2	10	6	i	-16	-10	.
CCOc1ccccc1OCC(=O)Nc1nnc(C)s1	-2	4	15	-10	i	-12	4	.
CC(=O)COc1ccc(-c2csnn2)cc1	-1	0	-7	-4	i	.	3	-14
